# Bioassay records: PubChem, several laboratories
# BJeLR viability: MLPCN primary cell-based screen for lethality selective to Ras in HRASV12 cells; AID 1554, 2009; 0.17% of 300,000 active; BJeLR (HRASV12) viability, CellTiter-Glo ATP luminescence, 48 h; reference of the scale not given here; inhibition, % (concentration not given with the values);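 active means replicate mean above 50%; inconclusive means above 50% but judged a plate artefact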;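 further: 50 nL library stock added to about 25 µL; numbers are from one replicate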
# Autofluor counter: compound fluorescence in toxin protease inhibitor counterscreen; fluorescence intensity (concentration not given with the values); compound autofluorescence counterscreen, microsphere flow cytometry; stronger effect = higher value; 3.1% of 360,000 active;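 active means at least 3 SD above the mean of all compounds, about 16000 in these data; inconclusive means too few beads counted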;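 further: 100 nL of 1 mM stock went into each well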
# PrP 5UTR inh: inhibition of PrP 5' UTR reporter expression; cell-based PrP 5' UTR mRNA reporter, plate reader; inhibition, % (concentration not given with the values); 0.35% of 340,000 active;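 active means every replicate at 50% or more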;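 further: 0 = median of the neutral control wells; tested in H4 reporter cells; numbers are from one replicate; inactives centre near -14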
# Sa RN4220 lethal: growth inhibition of S. aureus RN4220, primary screen, OD600; inhibition, % (test concentration not listed); 0.33% of 330,000 active; 16 h;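 active means z-score of -3 or lower and OD600 up to 0.18 on both plates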;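 further: plate controls were untreated cells for no effect and reference antibiotic for full effect; stock transfer was 100 nL into about 80 µL; one replicate is shown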
# Mtb hypoxia inh: PubChem AID 1159583. M. tuberculosis hypoxia-regulated fluorescent reporter, fluorescence. fluorescence inhibition, % (no concentration beside the values). 0.1% of 300,000 active;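 active means 35 to 45% if threefold the growth effect, above 45% if 1.5-fold the growth effect; inactive means the rest, general growth blockers included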;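 further: wells of about 50 µL received 100 nL stock; 0% = vehicle wells and 100% = reference inhibitor wells; whole bacteria with a GFP reporter of the hypoxia response; strong numbers were not always called active; many hits fall short of the cut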
# Sa ugtP lethal: growth inhibition of ugtP-null S. aureus, primary screen, RN4220 ugtP deletion, OD600. AID 1259309, 2017. 16 h; some inactives read as strong as hits. 0.54% of 330,000 active. growth inhibition, % (test concentration not listed);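 active means z-score under -3 and OD600 up to 0.15 on both plates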;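 further: plate controls were untreated wells for no effect and antibiotic for full effect; wells of about 80 µL received 100 nL stock; the first replicate is given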
# Mtb hypoxia inh growth: recorded beside Mtb hypoxia inh, whose call it bears; growth inhibition, %; measured here: M. tuberculosis growth (absorbance);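 0% = vehicle and 100% = reference antibiotic; read after six days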
# An asterisk follows results filed as active; ? = inconclusive; / = no result given.
SMILES,BJeLR viability,Autofluor counter,PrP 5UTR inh,Sa RN4220 lethal,Mtb hypoxia inh,Mtb hypoxia inh growth,Sa ugtP lethal
CCOc1ccccc1CNc1nnnn1C,5,3803,-30,-2.1,-9,11,-6
Cc1onc(-c2ccccc2)c1C(=O)NCCN1CCOCC1,-1,3319,-11,-11,1,1,1
CC(=O)Nc1ccc(OC(F)(F)C(F)F)c(NC(C)=O)c1,-7,8829,-34,2.7,15,6,4
NS(=O)(=O)c1ccc(CCNC(=O)Nc2ccc(Cl)cc2)cc1,11,3247,-14,3.3,11,4,13
COc1ccc(C2c3[nH]c4ccccc4c3CCN2C(=O)c2ccccc2C(C)=O)c(F)c1 (stereo not drawn),-3,4380,-11,-3.8,-8,11,-8
CCN1CCN(Cc2ccc(NC(=O)c3cc(NC(=O)c4ccc5n[nH]nc5c4)cc(OC)c3)cc2C(F)(F)F)CC1,5,4765,-2,1.6,4,9,1
O=C(O)c1cc(-c2ccccc2)n(-c2ccc(F)cc2)n1,-7,3848,-14,-3.1,4,1,19
Cc1ccc(O)c(CNc2nc3ccccc3[nH]2)c1,-3,3893,-17,0.1,-11,-17,-4
COc1cc(Nc2ccc(C)cc2)c([N+](=O)[O-])nc1[N+](=O)[O-],18,10978,-52,8.7,-6,3,7
CC=CC(=O)Nc1cccc(C2=NOC3(C2)CC(C(N)=O)N(C(=O)Cc2ccc([N+](=O)[O-])cc2)C3)c1 (stereo not drawn),/,/,/,1.1,-5,5,-3
O=C(O)[C@@H]1CC(O)CN1C(=O)CCc1c[nH]c2ccccc12 (stereo partly drawn),5,4011,-13,-0.2,-2,9,13
CC(C)CN1CCN(Cc2ccc(C(F)(F)F)cc2)CC1CCO (stereo not drawn),11,3358,-8,3.8,-7,8,2
O=C(CCS(=O)(=O)c1ccccc1)Nc1nc(-c2ccc(F)cc2)cs1,1,3687,-7,3.4,5,-7,-6
Cc1cnn(-c2nc(-c3cccs3)cc(C(F)(F)F)n2)c1,-2,23064*,-13,9.7,7,17,-4
CC(Oc1cc2oc(=O)c3c(c2cc1Cl)CCC3)C(=O)NCCCn1ccnc1 (stereo not drawn),0,5368,-2,0.1,-6,-15,9
CC1(C)CC(=O)C(N=Nc2ccc(C(F)(F)F)cc2[N+](=O)[O-])=C(O)C1,-7,/,-28,-5.5,-1,3,1
COc1ccc(CCNC(=O)C2CC(c3c(Cl)cccc3Cl)=NO2)cc1 (stereo not drawn),-7,4186,-7,6.3,17,8,2
CCCCN(CCCC)S(=O)(=O)c1ccc(NC(=O)c2ccc([N+](=O)[O-])cc2Cl)cc1,-19,2126,-13,-10,-11,-7,-28
CN(C)c1ccc(NC(=O)c2ccc(Cn3cc([N+](=O)[O-])cn3)cc2)cc1,1,3374,-46,5.9,/,/,3
COc1cccc(CN2CCN(c3ncccn3)CC2)c1OC,-1,3528,-6,5.7,-5,4,3
O=c1[nH]nnc2sc3c(c12)CCCC3,2,2382,-3,2.2,/,/,-6
COc1ccc(C2CC(c3cccs3)=NN2C(=O)CSc2nnnn2C)cc1OC (stereo not drawn),-12,4192,-33,1.7,3,3,6
CCOC(=O)CN1C(=O)C(O)(CC(=O)c2ccccn2)c2ccccc21 (stereo not drawn),-16,5882,6,6.9,-5,9,14
Cc1ccc(S(=O)(=O)N2CCC(C(=O)NN=Cc3cccn3C)CC2)cc1,/,/,/,4.6,7,10,4
COCC(C)NC(=S)N1CCN(c2ccccc2Cl)CC1 (stereo not drawn),8,4000,-49,1.7,-3,8,3
CCC(c1nnc(SCC(=O)NCCc2ccc(OC)c(OC)c2)n1Cc1ccccc1)N(C)C (stereo not drawn),-7,3163,-19,7.0,12,1,3
CCc1ccccc1Nc1ncnc2ccccc12,4,3962,-4,2.5,-8,-7,4
CC(C)c1ccc(CNCc2ccccc2)cc1,12,12869,-41,6.2,13,12,2
N#Cc1c(N)nc2c(c1-c1cccs1)CCCC2,-4,2786,-18,-0.4,2,-6,8
Cn1nc(-c2ccccc2)c(CO)c1Oc1ccc(F)cc1,-8,3561,-9,6.9,4,2,5
Cc1ccccc1C(=O)NCCn1cc(SCC(=O)NCC2CCCO2)c2ccccc21 (stereo not drawn),7,6551,-17,3.7,0,1,7
CCOC(=O)c1c(N)sc(C(=O)OC)c1C,15,2460,-2,8.4,4,6,7
Cc1cc(C)nc(-n2nc(C)c(C3(O)C(=O)Nc4ccccc43)c2N)n1 (stereo not drawn),-9,9370,-49,6.0,21,8,3
COc1cc(CNC2CCCC2)c(Br)cc1OC1CCCC1,4,3260,-17,3.5,15,4,-1
O=C(COC(=O)c1ccco1)NC1CCCCC1,6,2369,-5,2.9,/,/,15
COC(=O)c1cc(N2CCN(C)CC2)nc2ccccc12,-3,4499,1,6.8,1,6,6

# Profiles from above:
# COc1cc(CNC2CCCC2)c(Br)cc1OC1CCCC1 in the list: BJeLR viability: 4; Autofluor counter: 3260; PrP 5UTR inh: -17; Sa RN4220 lethal: 3.5; Mtb hypoxia inh: 15; Mtb hypoxia inh growth: 4; Sa ugtP lethal: -1
# COC(=O)c1cc(N2CCN(C)CC2)nc2ccccc12 in the list: BJeLR viability: -3; Autofluor counter: 4499; PrP 5UTR inh: 1; Sa RN4220 lethal: 6.8; Mtb hypoxia inh: 1; Mtb hypoxia inh growth: 6; Sa ugtP lethal: 6
# CCC(c1nnc(SCC(=O)NCCc2ccc(OC)c(OC)c2)n1Cc1ccccc1)N(C)C (stereo not drawn) in the list: BJeLR viability: -7; Autofluor counter: 3163; PrP 5UTR inh: -19; Sa RN4220 lethal: 7.0; Mtb hypoxia inh: 12; Mtb hypoxia inh growth: 1; Sa ugtP lethal: 3

# Next entries
SMILES,BJeLR viability,Autofluor counter,PrP 5UTR inh,Sa RN4220 lethal,Mtb hypoxia inh,Mtb hypoxia inh growth,Sa ugtP lethal
Cc1cc(C)n2nc(C(=O)OCCOc3ccc(Br)cc3)nc2n1,-8,4822,-29,3.7,3,1,17
COc1ccc(/C=C/C(=O)Nc2ccc(C(N)=O)cc2)cc1OC,4,5487,/,2.4,3,14,-2
COc1ccccc1N(CC(=O)NCCSCc1ccccc1)S(C)(=O)=O,-16,4089,14,2.4,-7,7,-1
CCCn1nnnc1SCC(=O)N1CCOCC1,5,4163,-12,3.2,/,/,4
COc1ccc(-c2noc(CCC(=O)NCc3ccco3)n2)cc1,1,5463,-22,2.0,5,-1,1
CCCn1cc(S(=O)(=O)c2ccccc2)c(=O)c2cc(CC)ccc21,11,4579,-10,6.2,3,-2,12
CCn1cc(C(=O)O)c(=O)c2cnc(N3CCN(C(=S)NC(=O)c4ccc(Cl)cc4)CC3)nc21,0,/,/,36,3,14,9
COc1ccc(/C=N/NC(=O)c2ccc(Cl)cc2)cc1Cn1cc(Cl)cn1,-1,1991,-4,/,/,/,/
CCc1ccc(NC(=O)CCCN2C(=O)C3CC=CCC3C2=O)cc1 (stereo not drawn),-6,6579,-18,-2.8,-5,2,0
Cc1ccc2c(c1)C1CN(C)CCC1N2C(=O)/C=C/c1ccc2c(c1)OCO2 (stereo not drawn),-1,2576,-29,0.7,-7,7,2
CC1CCCCN1CCCNC(=O)c1cc(Br)c(Br)[nH]1 (stereo not drawn),1,4811,82*,17,17,8,-53
Cc1ccc(-c2nnn(CC(=O)N(Cc3ccco3)C(C(=O)NC3CCCC3)c3cccs3)n2)o1 (stereo not drawn),5,?,-15,-6.9,/,/,7
CC1=CC2=NC(=O)/C(=C\c3cccn3CCOc3ccc(C)c(C)c3)C(=N)N2O1,-6,6394,-9,4.7,8,8,-8
COCc1cc(=O)[nH]c(Nc2nc(C)c3ccccc3n2)n1,-1,4185,-34,5.3,5,-2,6
Cc1ccc(C(=O)NCC(=O)N2CCC3(CC2)NCCc2[nH]cnc23)cc1C,-3,5184,-8,6.0,0,2,6
Cc1nc2ccccc2c(=O)n1NC(=O)C1CCCCC1,2,6471,-34,3.6,3,-3,4
COc1ccc(/C=N/n2cnnc2)cc1Cn1nc(C)c([N+](=O)[O-])c1C,-28,2193,-7,/,/,/,/
Cc1ccccc1Nc1nc(N)nc(CSc2n[nH]c(N)n2)n1,-10,3453,-9,0.7,18,8,4
COc1ccc2c(c1)cc(C(=O)N[C@H](C(=O)N1CCC(C(=O)O)CC1)C(C)C)n2C,0,3603,-17,-0.6,6,6,6
CCn1cc([N+](=O)[O-])c(C(=O)N2N=C(c3ccc4ccccc4c3)CC2c2cc(Br)ccc2O)n1 (stereo not drawn),-8,2446,-18,-7.6,16,13,8
Cc1ccc(NC(=O)COC(=O)C2C3CC4OC(=O)C2C4C3)cc1 (stereo not drawn),-11,3441,-15,-1.3,1,2,7
COc1ccc(C(=O)N(Cc2ccccc2)Cc2cc3cc4c(cc3[nH]c2=O)OCCO4)cc1,11,22249*,-13,0.5,2,3,-3
COc1ccc(NC(=O)CN(C)CC(=O)Nc2ccccc2SC)cc1Cl,7,2010,-25,3.1,17,12,7
CCOC(=O)c1sc(NC(C)=O)cc1C,-1,5694,2,1.4,1,2,2
CCC(=O)N(Cc1cc2cc(OC)ccc2[nH]c1=O)c1ccc(C)cc1C,4,4653,-15,5.3,19,12,-1
N#CC(C(=O)OCc1ccccc1)c1nc2ccccc2nc1N1CCOCC1 (stereo not drawn),0,14176,1,0.6,-7,-7,-12
CCOC(=O)N1CCN(C(=O)COc2cccc3c2CCN(Cc2ccccc2F)C3=O)CC1,-9,1997,-18,4.1,9,10,-1
COc1ccccc1NC(=O)CCc1nnc2ccc(N3CCN(C)CC3)nn12,-2,6340,-28,1.7,9,5,13
CCN(CC)C(=O)CSc1nnc(-c2ccccc2)o1,-1,7531,-61,4.2,17,11,3
Cc1ccc(-c2noc(CCC(=O)NC3CCN(Cc4ccccc4)CC3)n2)cc1,3,2320,-12,-2.3,/,/,9
O=[N+]([O-])c1cccc(C=NN=C2c3ccccc3-c3ccccc32)c1O,/,/,/,2.3,2,-9,-9
COc1ccc(-n2c(C)nc3cc(C(=O)NCc4ccc5c(c4)OCO5)ccc32)cc1,-9,2032,-20,-13,-2,3,77
CCSc1nnc(NC(=O)CSc2nnc(CNC(=O)c3ccccc3F)o2)s1,1,2428,-2,2.9,0,7,7
Cc1cc(C)c2nc(C(F)(F)F)c(C#N)c(N)c2c1,15,3232,-3,0.0,6,5,-9
C/C=C(/C(=C/C)c1ccc(O)cc1)c1ccc(O)cc1,-2,5196,32,/,/,/,/
COc1cc2ccccc2cc1C(=O)O,-5,10579,-12,5.0,12,9,-3
CCN(CC)CC(O)CCCCCCCCC(=O)OC (stereo not drawn),1,5620,/,3.5,-6,8,-2
COc1ccccc1NC(=O)CC(=O)Nc1ccccc1OC,-9,2722,3,5.9,-6,-1,2
CCN(CC(=O)NCc1ccc(Cl)cc1)C(=O)CSc1ccccc1F,6,5766,-7,0.4,-1,0,7
Cc1nc2nc[nH]n2c(=O)c1CCOC(=O)c1ccccc1F,-6,3109,-31,2.8,-2,-3,-2
CCC1(c2ccc(F)cc2)NC(=O)N(CC(=O)Nc2cccc(S(=O)(=O)N3CCCCC3)c2)C1=O (stereo not drawn),4,?,-21,/,/,/,/
CC(/C=C1\N=C(SCc2ccccc2Cl)SC1=O)=C\c1ccccc1,1,4421,-10,1.7,3,0,11
O=C(NC1CCCc2ccccc21)C(Cc1ccccc1)NS(=O)(=O)c1cccs1 (stereo not drawn),1,2492,-19,11,6,13,3
CN(C(=S)NC(=O)c1ccc(Br)o1)c1ccccc1,-14,2295,-17,-1.9,2,-8,1
COc1ccc2oc(=O)c(C(=O)NCc3ccc4c(c3)OCO4)cc2c1,0,4639,-19,5.8,/,/,3
CCCS(=O)(=O)N1CCCC(c2nc(-c3cccc(OC)c3)no2)C1 (stereo not drawn),6,8075,-29,6.7,3,0,13
COc1ccc(NC(=O)C(C)N2c3cccc4cccc(c34)S2(=O)=O)c(OC)c1 (stereo not drawn),-8,3257,-23,3.1,5,2,7
O=C(CSc1ncccn1)NN=Cc1cccs1,/,/,/,2.4,10,2,15
O=C(N/N=C/c1ccc([N+](=O)[O-])o1)c1cn(-c2ccccc2)nc1-c1ccccc1,-2,2589,1,/,/,/,/
